WNV protease inh: inhibitors of WNV NS2B-NS3 protease, primary screen, biochemical, fluorogenic substrate; fluorogenic substrate Ex360/Em465; stronger effect = lower value; z-score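 (tested at a level between 10 and 100 µM)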; actives 0.18% (n = 65,000);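 active = z-score at -3 or under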;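 note: score is relative to mean and spread of the compound wells of a plate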
Target sequence (P06935 1371-1501 limits assumed): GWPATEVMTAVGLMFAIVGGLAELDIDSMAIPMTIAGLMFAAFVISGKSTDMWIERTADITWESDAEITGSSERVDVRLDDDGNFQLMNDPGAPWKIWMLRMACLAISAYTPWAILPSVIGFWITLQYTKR
Target sequence (P06935 1502-1679 limits assumed): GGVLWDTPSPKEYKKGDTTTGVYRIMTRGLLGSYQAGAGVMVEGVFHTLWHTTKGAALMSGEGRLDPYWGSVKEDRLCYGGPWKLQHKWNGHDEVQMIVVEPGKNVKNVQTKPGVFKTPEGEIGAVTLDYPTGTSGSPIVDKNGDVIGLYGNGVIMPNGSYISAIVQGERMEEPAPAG
Hsc70 ATP site: Hsc70 inhibitors, probe displacement, primary screen, biochemical, fluorescence polarization (AID 568); 83,000 tested, under 10 active; one-dose displacement, % at 20 µM; IC50 in µM for titrated hits; Heat shock cognate 71 kDa protein (Homo sapiens); Hsc70 fluorescence polarization, probe displacement; higher % means a stronger effect; strong numbers were not always called active;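 active = displacement above 50% without optical interference and an IC50 on retest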;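 note: ATPase domain with a fluorescein-tagged ATP probe; 0% = vehicle and 100% = excess ADP; read after one hour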
MT1-MMP promoter: inhibitors of MT1-MMP promoter transcription, cell-based, luciferase reporter, luminescence (AID 618) | MT1-MMP promoter luciferase reporter cells, luminescence | calls from a first round at 10 µM; hits with a dose series show EC50 in µM | actives 0.62% (n = 87,000);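 active = over half of the reporter light lost at 10 µM or EC50 under 50 µM; inactive = the rest and hits that failed the dose series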;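 note: actives suppress MT1-MMP promoter-driven transcription so potencies describe inhibitors; HT1080 fibrosarcoma cells; overnight exposure; toxic or luciferase-blocking compounds were not removed from the actives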
Numbers without * were called inactive; i = inactive; nt = no result given. A portion of the library (hit frequency here may not be typical).

The line under a structure holds: WNV protease inh, Hsc70 ATP site, MT1-MMP promoter
- CCC(C)NC(=O)CS(=O)Cc1nc(-c2ccccc2C)oc1C (stereo unspecified)
→ 0.5, -6.8%, i
- Cc1ccc2c(c1)N(CCC(=O)NCCN1CCOCC1)C(=O)CO2
→ -0.12, -1.0%, i
- CCOC(=O)c1sc(NC(=O)C(CC)Sc2nc3ccccc3[nH]2)nc1C (stereo unspecified)
→ nt, -5.6%, i
- O=C(NC1CCCCCCC1)C1=COCCO1
→ 1.6, 0.1%, i
- CCc1ccc(NC(=O)C2C3C=CC(C4CC34)C2C(=O)O)cc1 (stereo unspecified)
→ nt, -0.6%, i
- CCCc1cc(=O)[nH]c(SCC(N)=O)n1
→ 0.1, -3.3%, i
- C=CCn1c(SCC(=O)c2ccc(OC)cc2)nnc1-c1cc2cccc(OC)c2o1
→ -1.2, -1.2%, i
- COc1cccc(C2=CC(c3ccc(OC)c(OC)c3OC)n3nnnc3N2)c1 (stereo unspecified)
→ -1.1, -4.4%, i
- COc1cccc(NC(=O)CSCc2n[nH]c(=O)[nH]2)c1
→ 0.64, -1.3%, i
- CN(C)S(=O)(=O)N(CC(=O)N1CCOCC1)c1ccccc1
→ -0.49, 0.7%, i
- Cc1cccc2cc(C#N)c(NCCNC(=O)NC3CCCCC3)nc12
→ 1.1, -6.9%, i
- CCN(CC)S(=O)(=O)c1cccc(C(=O)OCC(=O)N2CC(=O)Nc3ccccc32)c1
→ 0.0057, 0.7%, i
- CCCc1cc(-c2nc(N)ncc2-c2ccc3c(c2)OCCCO3)c(O)cc1OC
→ -0.11, 5.3%, i
- Cc1ccccc1Cn1cc(NC(=O)c2cc3nc(-c4ccco4)cc(C(F)(F)F)n3n2)cn1
→ 0.54, -6.1%, i
- CCS(=O)(=O)N1CCN(Cc2ccncc2)CC1
→ -0.38, -1.9%, i
- O=C(CSc1nnc(-c2cccs2)o1)NCC1CN(Cc2ccccc2)CCO1 (stereo unspecified)
→ -0.83, 2.2%, i
- COC(=O)c1c(NC(=O)C(C)(C)C)sc2c1C(C(=O)OC)CC2 (stereo unspecified)
→ nt, 1.7%, i
- Cc1ccsc1CNn1cnnc1SCc1ccccc1F
→ -0.27, -2.9%, i
- Cc1cccc(NC(=O)CSc2nnnn2C)n1
→ nt, 2.3%, i
- Cn1c2ccccc2c2nnc(SC3CCOC3=O)nc21 (stereo unspecified)
→ -1.3, 1.4%, i
- COc1ccc(-c2cc(C(F)(F)F)n3nc(C(=O)N4CCCCC4)cc3n2)cc1OC
→ nt, 1.7%, i
- O=c1cc(NCC2CCCO2)[nH]c(=O)n1-c1ccc(Cl)cc1 (stereo unspecified)
→ -0.36, -0.3%, i
- CCCS(=O)(=O)N1CCC(C(=O)N2CCOCC2)CC1
→ -0.28, -3.0%, i
- Cc1nc(NC(=O)c2ccc(Br)o2)sc1C
→ nt, -5.4%, i
- Cc1oc2ccc(O)c(CN3CCOCC3)c2c1C(=O)c1ccc(Cl)cc1
→ -0.45, -10%, i
- COc1ccc(OCCn2cncn2)cc1
→ nt, 1.6%, i
- CCCCNC(=S)NCCN1CCCCC1
→ nt, 2.5%, i
- CCOC(=O)CC1C(=O)NCCN1C(=O)Nc1ccccc1 (stereo unspecified)
→ 3.9, -2.6%, i
- CN(C)S(=O)(=O)c1ccc(NC(=O)c2cc3ccccc3o2)cc1
→ 0.09, 9.4%, i
- COc1c(Cl)cc(-c2noc(C)c2C(=O)NC(C)C)cc1Cl
→ -0.33, 4.5%, i

3 entries from above in another layout:
SMILES: CCCS(=O)(=O)N1CCC(C(=O)N2CCOCC2)CC1
  WNV protease inh: -0.28 | Hsc70 ATP site: -3.0% | MT1-MMP promoter: i
SMILES: Cc1nc(NC(=O)c2ccc(Br)o2)sc1C
  WNV protease inh: nt | Hsc70 ATP site: -5.4% | MT1-MMP promoter: i
SMILES: Cc1oc2ccc(O)c(CN3CCOCC3)c2c1C(=O)c1ccc(Cl)cc1
  WNV protease inh: -0.45 | Hsc70 ATP site: -10% | MT1-MMP promoter: i

More records follow:
The line under a structure holds: WNV protease inh, Hsc70 ATP site, MT1-MMP promoter
- CC1(C)C(O)=C(c2nc3ccccc3[nH]2)C(=N)N1c1ccccc1
→ nt, 3.6%, i
- N#Cc1c(N)nc2c(c1-c1ccncc1)CCCC2
→ 0.66, -3.5%, i
- COCCn1c(-c2ccc(OC)cc2)cnc1N
→ -1.3, -4.1%, i
- CCCN1CCN(C(=O)C2CCN(S(=O)(=O)c3ccc4c(c3)oc(=O)n4C)CC2)CC1
→ -0.67, -1.9%, i
- CCOC(=O)NC1(C(F)(F)F)C(=O)NC(C)=C1C#N (stereo unspecified)
→ 0.8, 10%, i
- Cc1c(NC(=O)CN2CC(C)OC(C)C2)c(=O)n(-c2ccccc2)n1C (stereo unspecified)
→ 0.0012, 2.0%, i
- CN(C(=O)CSc1nnnn1-c1ccccc1)C1CCCCC1
→ 0.22, 7.6%, i
- CCOCCCNC(=O)C(c1ccc(Cl)cc1)N1CCN(C(=O)c2ccco2)CC1 (stereo unspecified)
→ -0.85, -1.9%, i
- COc1cccc(OC)c1OCCCSc1nc(C)cc(=O)[nH]1
→ 0.27, -0.5%, i
- COC(=O)CSc1nnc2c3c4c(sc3nc(-n3nc(C)cc3C)n12)COC(C)(C)C4
→ -0.4, -6.1%, i
- COc1cccc(NS(=O)(=O)c2c(C)cc(C)cc2C)c1
→ 1.2, 0.4%, i
- CCCCCCN1Cc2ccccc2C1
→ 0.11, 6.6%, i
- O=S(=O)(c1ccc(Cl)cc1)N1CCn2c1nc1ccccc12
→ nt, 3.6%, i
- CCc1cc2c(=O)c(-n3cnc4ccccc43)coc2cc1O
→ -0.07, 2.8%, i
- Cc1ccc(CNC(=O)c2coc(=O)c3ccccc23)o1
→ 1.1, 1.9%, i
- CCN(CC)C(=O)C1CCN(S(=O)(=O)c2ccc(C3CNC(=O)C3)cc2)CC1 (stereo unspecified)
→ -0.31, 3.0%, i
- COc1ccc2cc(CN(CCCN3CCOCC3)Cc3nnnn3C3CCCC3)c(=O)[nH]c2c1
→ 1.5, -4.2%, i
- CC(=O)c1c(C)[nH]c(C(=O)NCc2ccccn2)c1C
→ -1.9, -0.5%, i
- Cc1cc(OCC(=O)NCCO)ccc1Cl
→ -1.5, -2.8%, i
- COc1cc(/C=N/n2cnnc2)ccc1OC(=O)c1cccnc1
→ -1.4, 0.0%, i
- CCOC(=O)CNC(=O)CSc1nc2nc(C)c(Br)cc2[nH]1
→ 0.92, -5.6%, i
- O=c1[nH]c2ccccc2c2nc3ccccn3c12
→ 0.14, -0.1%, i
- O=C1CN(C(=O)CN2CCCC2)C(c2ccccc2)c2cc(Br)ccc2N1 (stereo unspecified)
→ -0.68, -2.7%, i
- C[n+]1cnn2c1SCC1(COC1)C2
→ -0.49, -1.0%, i
- O=c1c2[nH]c3ccccc3c2ncn1Cc1ccncc1
→ -0.74, -4.8%, i
- Nc1nonc1C(=O)NCCN=Cc1cc(Cc2ccccc2)cc(Br)c1O
→ 0.17, 2.0%, i
- CNC(=O)CCSc1ccc(C)cc1
→ nt, -2.4%, i
- Oc1ccccc1Cn1c(-c2ccccc2O)nc2ccccc21
→ -0.32, 4.8%, i
- c1ccc(Oc2cccc(CN3CCOCC3)c2)cc1
→ -0.06, 0.9%, i
- COC(=O)c1ccccc1NC(=O)NCc1cccnc1
→ 1.5, -0.5%, i

More results.
smiles	WNV protease inh	Hsc70 ATP site	MT1-MMP promoter
COCCNC(=O)CN(c1ccc(C)cc1)S(=O)(=O)c1ccccc1	-0.21	7.0%	i
O=C(Nc1nnc(C2CCCC2)s1)C1CCC1	-1.5	-2.5%	i
O=C(c1cccnc1)N1CCCc2ccccc21	-0.33	6.1%	i
CCc1c(O)nc(SCC(=O)Nc2ccc3c(c2)CCC3)[nH]c1=O	-0.64	1.6%	i
COc1ccc(C(=O)Nc2nc3cc(OC)c(OC)cc3c(=O)[nH]2)cc1	0.5	-2.0%	i
CC(=O)c1cccc(N(C(=O)c2cnccn2)C(C(=O)NCc2ccccc2)c2ccco2)c1 (stereo unspecified)	nt	-0.5%	i
CCOc1ccccc1N(C(=O)CNS(=O)(=O)c1ccccc1)C(CC)C(=O)NCc1ccco1 (stereo unspecified)	nt	5.5%	i
CCCCN(N=Nc1nonc1OC)c1nonc1OC	nt	1.6%	i
O=C(CN1CCN(c2ncc(C(F)(F)F)cc2Cl)CC1)NC(=O)NCc1ccccc1	1.7	-2.6%	i
CCOc1ccc(N(CCC#N)S(=O)(=O)c2ccc(OC)cc2)cc1	-1.1	2.9%	i
O=c1c2ccccc2[nH]c(=S)n1C1CCCCC1	-0.77	1.4%	i
CCOC(=O)N1CCN(C(=O)CCc2ccc(S(=O)(=O)NCCc3ccccc3)cc2)CC1	-0.44	1.7%	i
CC(C(=O)Nc1ccccc1-c1ccccc1)N1CCOCC1 (stereo unspecified)	-0.24	2.0%	i
Cn1c(=O)c2c(nc(NCC(O)CO)n2CCc2ccccc2)n(C)c1=O (stereo unspecified)	-1.5	0.6%	i
COc1ccc(CCNC(=O)C2(C)CCC(=O)N2CCC(C)C)cc1OC (stereo unspecified)	0.03	3.0%	i
CC(=O)c1cn(CC(=O)NCC2CCCO2)c2ccccc12 (stereo unspecified)	-0.4	-3.5%	i
CCn1c(=NC(=O)c2ccc(S(=O)(=O)N3CCOCC3)cc2)sc2cccc(OC)c21	-0.56	0.3%	i
N#Cc1cccc(-n2nnnc2-c2ccc3c(c2)OCO3)c1	0.73	1.8%	i
Brc1ccc2[nH]ncc2c1	-0.68	-1.3%	i
CCc1ccc(CN(C)CCc2ccccn2)cc1	-0.2	0.2%	i
CC(NC(=O)Cn1nnc(-c2ccncc2)n1)c1ccccc1 (stereo unspecified)	nt	-2.3%	i
CCC(CC)c1nc2cc(OC)c(OC)cc2c(=O)o1	1.1	0.2%	i
CCCOc1ccc(N2C(=O)CC(NCc3ccncc3)C2=O)cc1 (stereo unspecified)	0.45	3.6%	i
CCOC(=O)Cn1c(=O)oc2cc(S(=O)(=O)NCc3cccs3)ccc21	1.7	0.9%	i
C=CCn1c(CNC(=O)c2ccco2)nnc1SCC(=O)N1c2ccccc2Sc2ccccc21	nt	-3.2%	i
COc1ccc2c(CC(=O)N3CCN(S(=O)(=O)c4cccs4)CC3)coc2c1	-0.04	-0.5%	i
CC(C)(C)c1n[nH]c(=S)n(N)c1=O	1.5	-1.0%	i
O=C(NCc1ccccc1)c1cccc(OCC(=O)N2CCN(C(=O)c3ccco3)CC2)c1	0.99	-1.5%	i
O=C(C1CC1)N(Cc1ccco1)c1nc(-c2ccccc2)cs1	0.23	-1.7%	i
CN=C1SC(CC(=O)Nc2cccc(Cl)c2Cl)C(=O)N1C (stereo unspecified)	-1	0.0%	i

As a working copy, two of the compounds above:
smiles	WNV protease inh	Hsc70 ATP site	MT1-MMP promoter
O=C(C1CC1)N(Cc1ccco1)c1nc(-c2ccccc2)cs1	0.23	-1.7%	i
CN=C1SC(CC(=O)Nc2cccc(Cl)c2Cl)C(=O)N1C (stereo unspecified)	-1	0.0%	i

Further results follow:
smiles	WNV protease inh	Hsc70 ATP site	MT1-MMP promoter
CCCCOC(=O)NCN1C(=O)C2C3C=CC(C3)C2C1=O (stereo unspecified)	0.28	-3.6%	i
COc1cc(OC)cc(C(=O)N2CCN(C(=O)c3cccc(F)c3)CC2)c1	-0.28	3.5%	i
O=C(Nc1ccc(N2CCCCC2)c(Cl)c1)c1ncn[nH]1	1.1	1.2%	i
CCOC(=O)c1[nH]c2cc3c(cc2c1NC(=O)CN1CCc2ccccc2C1)OCO3	-0.12	-6.7%	i
Cc1cccc(C)c1NC(=O)C1(NC(=O)c2cnccn2)CCCCC1	0.69	2.6%	i
COc1cc(OC)cc(C(=O)N2CCN(C(=O)COc3ccc4ccccc4c3)CC2)c1	0.51	-2.9%	i
NS(=O)(=O)c1ccc(NC(=O)COC(=O)CCNC(=O)NC23CC4CC(CC(C4)C2)C3)cc1	2.1	-0.1%	i
Cc1ccc(SCC(=O)Nc2ncc(C)s2)cc1	nt	0.8%	i
CC1CN(Cc2nc3c(c(=O)n(C)c(=O)n3C)n2CCCO)CC(C)O1 (stereo unspecified)	-0.72	7.4%	i
O=C(Cc1cccs1)N(c1ccccc1)C1C=CS(=O)(=O)C1 (stereo unspecified)	0.69	-3.0%	i

Compound profiles, from the list above:
Record of O=C(Cc1cccs1)N(c1ccccc1)C1C=CS(=O)(=O)C1 (stereo unspecified) : WNV protease inh: 0.69; Hsc70 ATP site: -3.0%; MT1-MMP promoter: i
Record of COc1cc(OC)cc(C(=O)N2CCN(C(=O)c3cccc(F)c3)CC2)c1 : WNV protease inh: -0.28; Hsc70 ATP site: 3.5%; MT1-MMP promoter: i

Following part
smiles	WNV protease inh	Hsc70 ATP site	MT1-MMP promoter
O=C(Nc1ccc(S(=O)(=O)NC2CCCC2)cc1)c1cnccn1	0.13	-1.9%	i
COc1ccc(Cn2nnnc2C(c2cc3cccc(C)c3[nH]c2=O)N2CCOCC2)cc1 (stereo unspecified)	-0.54	3.4%	i
COc1ccc(C)cc1S(=O)(=O)N(C)CC(=O)NCc1ccco1	0.12	-1.0%	i
NC(=O)c1ccccc1N/C=C/C(=O)c1ccc(Cl)cc1	nt	3.2%	i
CSCC[C@H](NC(=O)CC(C)(C)C)c1nc2ccccc2[nH]1	nt	3.6%	i
O=C(Nc1ccccc1)c1ccc(S(=O)(=O)N2CCOCC2)cc1	nt	3.1%	i
CC1(C)CNC(=O)CC(C)(C)N1O	-0.05	0.1%	i
